Assay outcomes as filed in PubChem.
Tgondii IFNg: T. gondii growth inhibition with IFN-gamma, primary screen, cell-based; hit rate 3.8% among 69,000; Toxoplasma gondii growth in IFN-gamma-treated host cells; stronger effect = lower value; reference of the scale not given here; activity change, negative = inhibition, %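 (about 20 µM by stock and volumes)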;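 active means below -70%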;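 further: host cells are HeLa cells infected with Toxoplasma gondii; parasite growth read as luciferase light; one replicate is shown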
* hit, by the source's call; i = inactive.

Compound	Tgondii IFNg
CO[C@H]1CCN(c2nnc(C)s2)C[C@@H]1Cc1ccccc1	-2
CCOCC(=O)NCC1Cn2nnc(-c3ccnn3C)c2CO1 (stereo unspecified)	11
CCOC(=O)c1cncc(C#CC(C)(C)O)c1	16
O=C(NCc1ccncc1)c1cccc(COc2ccc3c(c2)CCC3)c1	10
COc1ccc(NC(=O)c2ccc(C3SCC(=O)N3Cc3ccco3)cc2)cc1OC (stereo unspecified)	-4
Cc1c(C(=O)N2CCCC3(CN(C)C(=O)O3)C2)[nH]c2ccc(F)cc12 (stereo unspecified)	0
Cc1ccc(CS(=O)(=O)N2CCC3(CN(c4ccccc4)C(=O)CN3C)C2)cc1 (stereo unspecified)	168
NC(N)=NC(=O)c1cnccn1	12
Cc1noc(C)c1C(=O)NC1CC2(CCNCC2)Oc2ccccc21 (stereo unspecified)	3
COc1ccccc1-c1ccc2c(c1)O[C@@H](CN(C)CC1CCOCC1)[C@@H](C)CN([C@@H](C)CO)S2(=O)=O	8
Cn1cnc(C(=O)N2CCC3(CC2)CC(NS(C)(=O)=O)CCO3)c1 (stereo unspecified)	-10
CC1=C2CCCC2CC/C1=N\Nc1nc(-c2ccccc2)cs1 (stereo unspecified)	139
Cc1cnc(N2CC3(CCN(c4nccs4)C3)C2)nc1	-12
CCC(CN1CCOCC1)NC(=O)Cc1csc2ccc(C)cc12 (stereo unspecified)	64
O=C(Cn1ncc2c(N3CCN(c4ccccc4)CC3)ncnc21)Nc1ccc(F)cc1	-61
COc1ccc2c(c1)NC1(CCN(S(=O)(=O)c3ccc(Cl)cc3)CC1)c1cccn1-2	5
COc1ccccc1-c1cn(CC[C@@H]2CC[C@H](NC(=O)C3CCCCC3)[C@@H](CO)O2)nn1	-44
O=C(COc1ccccc1)N1CCC2(CC(=O)N(c3cccc(F)c3)C2)C1 (stereo unspecified)	-2
COc1ccc(S(=O)(=O)NC(Cc2ccsc2)c2ccccn2)cc1 (stereo unspecified)	33
COCC1(C(=O)Nc2ccccc2SCc2ccccc2F)CCC1	15
C/C=C/c1ccccc1[C@H]1[C@@H](C#N)N(C(=O)c2cccnc2)[C@@H]1CO	0
Cn1c(-c2ccc(Cl)cc2)cs/c1=N\C(=S)NCCc1ccccc1	-57
CCN1CCN(Cc2cc(C(=O)N(C)Cc3cccc(Cl)c3)no2)CC1	-8
CCc1nc(-c2c(-c3ccccc3)ncn2CCSc2ncn[nH]2)c(C)[nH]1	-4

Copied from the list.
Tgondii IFNg result of CCC(CN1CCOCC1)NC(=O)Cc1csc2ccc(C)cc12 (stereo unspecified) : 64
Tgondii IFNg result of O=C(Cn1ncc2c(N3CCN(c4ccccc4)CC3)ncnc21)Nc1ccc(F)cc1 : -61
Tgondii IFNg result of COc1ccc2c(c1)NC1(CCN(S(=O)(=O)c3ccc(Cl)cc3)CC1)c1cccn1-2 : 5

(further entries)
Compound	Tgondii IFNg
Cc1cc(C)cc(NC(=O)N2CCC(c3nc(C(=O)N(C)C)c(C)o3)CC2)c1	-5
c1cncc(-c2nc(CCNC3CCSC3)cs2)c1 (stereo unspecified)	-4
Fc1cccc(Cl)c1CSc1nccn1-c1cccnc1	77
CC(=O)Nc1ccc(OS(=O)(=O)C(F)(F)C(=O)N2CCCCC2)cc1	39
Cc1nc(C)n(CCC(=O)N2CCN(S(=O)(=O)c3ccccc3)CC2)n1	56
O=C(Cn1c(=O)cc(C(=O)N2CCc3ccccc3C2)c2ccccc21)Nc1ccc2c(c1)OCO2	-6
O=C(c1cn2ccsc2n1)N1CCc2c([nH]c3ccccc23)C1C1CCCCC1 (stereo unspecified)	-30
CN1CCC(Cc2noc(CCc3nc(Cl)n[nH]3)n2)CC1	53
Cc1oc(C2CCN(C(=O)c3ccc4c(c3)OCO4)CC2)nc1C(=O)N(C)C	60
CCc1ccc(CN2Cc3nccn3CC(Cn3cncn3)C2)o1 (stereo unspecified)	66
Cc1noc(C)c1C(=O)N1CCC(c2nc3ccccn3c2NC(C)(C)C)CC1	-18
COc1ccc(CCNC(=O)c2cncc(NS(=O)(=O)c3ccc(NC(C)=O)cc3)c2)cc1OC	22
Cc1ccc(-c2nc(C)c(CCNS(=O)(=O)c3ccc(F)cc3)s2)cc1	19
Cc1cc(C)n(CC(C)NCc2noc(-c3ccco3)n2)n1 (stereo unspecified)	3
Cc1cc(Sc2nnc(N)s2)c2ccccc2n1	-2
CCN1c2ccccc2C(=O)NC12CCN(C(=O)Nc1ccccc1C)CC2	-40
O=C(CN1CCOCC1)N1C[C@@H]2N[C@H](C1)C2c1ccc(-c2ccncc2)cc1 (stereo partly specified)	-44
COc1cc(NC(=S)NN2CCN(C)CC2)cc(OC)c1OC	-3
COc1ccc(CNC(=O)c2c(O)c3cccnc3[nH]c2=O)cc1OC	117
CCCCCNC(=O)c1ccc(CN2CCc3ccccc3C2)cc1	25
O=C(CC1CC1)N1[C@H](CO)[C@H]2c3ccccc3N(S(=O)(=O)c3ccccc3F)C[C@H]21	1
COC(=O)c1ccc(Cl)cc1NC(=O)N1CCC2(CC1)Nc1cc(OC)ccc1-n1cccc12	i
C[C@@H](NC(=O)C[C@@H]1C=C[C@@H](NC(=O)c2cccnc2)[C@@H](CO)O1)c1ccccc1	34
Cc1c(CN2CC3(CCNCC3)CC2C(=O)O)c(=O)n(-c2ccccc2)n1C (stereo unspecified)	-45
N#C[C@@H]1[C@@H](c2ccc(-c3cncnc3)cc2)[C@H](CO)N1C(=O)Cc1ccccc1	3
Cc1cc(C)cc(OCC(=O)Nc2ccc(Br)cn2)c1	-36
Cn1nc(C2CCN(C(=O)C3CNC(=O)C3)CC2)n(-c2ccccc2)c1=O (stereo unspecified)	5
O=C(c1ccco1)N1CCc2cc(-c3cn4c(n3)CCCC4)ccc21	84
CCCn1nc(C)c(CNC(=O)C(C)n2cnc3ccccc32)c1C (stereo unspecified)	-2
CN(C)CCNC(=O)c1nc2c(n1C)CCN(c1ncccn1)C2	-6
OCc1ccc(-c2nccn2C[C@H]2CCc3ccccc3O2)o1	13
CC(=O)N1CCOCC2(CN(Cc3cnn(C)c3)CCO2)C1 (stereo unspecified)	8
CC(C)c1noc(CSc2nnc(CC3CCNCC3)n2C)n1	3
O=C(C1C=CCN1)N1CCC(c2cc(-c3ccccc3Cl)n[nH]2)CC1 (stereo unspecified)	-23
CN1C(=O)c2cc(NC(=O)c3cnccn3)ccc2OC[C@H]2O[C@H](CC(=O)NCC3CCCCC3)CC[C@H]21	23
COCc1ccc(C(=O)N2CC(=O)N(CC(C)C)CC(OCc3ccccn3)C2)s1 (stereo unspecified)	5

Continued (2 carried over from the part before).
Compound	Tgondii IFNg
CN1C(=O)c2cc(NC(=O)c3cnccn3)ccc2OC[C@H]2O[C@H](CC(=O)NCC3CCCCC3)CC[C@H]21	23
COCc1ccc(C(=O)N2CC(=O)N(CC(C)C)CC(OCc3ccccn3)C2)s1 (stereo unspecified)	5
CCn1nnc2c1CCN(S(C)(=O)=O)C2COCc1cccnc1 (stereo unspecified)	0
COc1ccc(-c2nc(C)c(CCNC(=O)c3cccc([N+](=O)[O-])c3)s2)cc1	i
Cc1ccc(=O)n(CC(=O)N2CCC(c3cc(=O)n4[nH]c(C(C)(C)C)cc4n3)C2)n1 (stereo unspecified)	-11
COC(=O)c1c(NCc2ccccc2Br)c2cc(F)ccc2[nH]c1=O	-40
C[C@@H]1CN([C@H](C)CO)C(=O)Cc2cc(NC(=O)CCC(F)(F)F)ccc2O[C@H]1CN(C)CC1CC1	60
CCCN(C)Cc1ccc(C(=O)Nc2ccc3c(c2)COC3)cc1	-12
Cc1nc(C2COCCN2Cc2c(C)noc2C)cs1 (stereo unspecified)	3
Cc1ccc(S(=O)(=O)NCCc2cc(N(C)C)nc(-c3ccccn3)n2)cc1	-2
CCN1C(=O)CCc2cc(NC(=O)CC(C)C)ccc21	5
O=C1NCC2(CCN(CC3(O)CCCN(Cc4ccc(F)cc4)C3=O)CC2)O1 (stereo unspecified)	-2
c1cnc(N2CCCC3(CN(Cc4ccoc4)CCO3)C2)cn1 (stereo unspecified)	141
COc1ncc(-c2ccc3nccc(-c4ccnnc4)c3c2)cc1NS(=O)(=O)c1ccc(F)cc1F	-78*

In the list so far, 2 have a tert-butyl group:
Compound	Tgondii IFNg
Cc1noc(C)c1C(=O)N1CCC(c2nc3ccccn3c2NC(C)(C)C)CC1	-18
Cc1ccc(=O)n(CC(=O)N2CCC(c3cc(=O)n4[nH]c(C(C)(C)C)cc4n3)C2)n1 (stereo unspecified)	-11

The list goes on.
Compound	Tgondii IFNg
CN(C)C(=O)c1cccc(-c2cccc(-c3nc(C(=O)N4CCCCC4)cc4c3[C@@H](CCO)N([S@](=O)C(C)(C)C)C4)c2)c1	-32
O=C(c1ccc(C2CCNCC2)nc1)N1CCOCC1	10
Cc1ccc(C(=O)N(C)Cc2n[nH]c3c2CCC3)cc1NC(=O)C1CC1	0
CN(C)[C@H]1CCN(c2ccnc(C(=O)NCc3ccco3)c2)C1	10
Cc1cccc(NC(=O)CN2CCC3(CC2)N=C(c2ccc(Cl)cc2)C(=O)N3)c1	11
Nc1cnn(CC(=O)NCCc2ccccc2F)c1	235
C[C@H]1C[C@@H]2CN(C(=O)CCc3ccccc3Cl)CC[C@H]2O1	-5
CCOc1ccc(CC(=O)N2CCC3(CC2)Nc2cccnc2NC3=NC2CCCC2)cc1	-5
N#C[C@@H]1[C@H](c2ccc(-c3cccc(F)c3)cc2)[C@@H](CO)N1C(=O)CN1CCOCC1	-10
CC(=O)N1C2CCN(Cc3nccs3)CC2C[C@H]1Cn1cncn1 (stereo partly specified)	-2
O=C(CCCn1c(=O)oc2ccccc21)N1CCN(c2ccc(F)cc2)CC1	10
CCCNC(=O)N1[C@@H]2c3ccc(-c4ccc(OC)cc4)c(=O)n3C[C@H]1[C@H](CO)[C@H]2C(=O)NC1CCC1	-4
COc1ccc(CN(C)C(=O)c2ccc(CSC)o2)cc1O	1
CCCNC(=O)C[C@@H]1CC[C@@H]2[C@H](COc3ccc(NC(=O)CC)cc3C(=O)N2C)O1	-6
Cc1ccc(CN2C[C@@H]3CCCO[C@H]3[C@@H](N(C)Cc3ccco3)C2)o1	16
CN(Cc1ccccn1)C(=O)c1cc(-c2ccn(C)n2)n2ccccc12	1
C[C@@H]1CN([C@@H](C)CO)C(=O)Cc2cc(NS(=O)(=O)c3ccc(Cl)cc3)ccc2O[C@@H]1CN(C)C(=O)Nc1ccc(C(F)(F)F)cc1	-79*
CC(=O)Nc1ccc(Cl)c(C(=O)N2CCN(c3cc(C)ccn3)CC2)c1	8
C[C@@H]1CN(Cc2ccccc2F)CCN1Cc1cccc(C#Cc2ccccc2)c1	1
CC(=O)N1CCc2nc(C)nc(NCCSc3ccccn3)c2CC1	17
Cc1cc(C)n(C(C(=O)NC2=NS(=O)(=O)c3ccccc32)C(C)C)n1 (stereo unspecified)	-7
COc1cccc(S(=O)(=O)N2CC[C@@H]3[C@H]2c2cc(C#Cc4cccnc4)ccc2N[C@@H]3CO)c1	-16
CCOCC(=O)N1CCN(CC2CC2)c2ncccc2C1	0
O=C1CCC2(CCCO2)CCN1CCOCc1ccccc1 (stereo unspecified)	12
COc1cccc(CNS(=O)(=O)c2cc3c4c(c2)CCN4C(=O)CC3)c1	-17
CCCC(=O)Nc1ccc2c(c1)OC[C@H](C)NC[C@H](C)[C@H](OC)CN(C)C2=O	58
CCCCNC(=O)CCC1N=C2c3ccccc3N=C(SCc3cc(=O)n4cc(Cl)ccc4n3)N2C1=O (stereo unspecified)	3
Cc1cc(C(=O)NCc2csc(-c3ncccn3)n2)c2cccc(C)c2n1	-66
CN(C)C(=O)COC[C@]12COC[C@H]1CN(S(C)(=O)=O)C2	6
Cc1nc2c(N(CCO)Cc3ccccc3)ncnc2o1	5
COc1cncc(-c2cccc(CN3CCOCC3)c2)c1	-12
C[C@H](CO)N1C[C@H](C)[C@@H](CN(C)C(=O)C2CCCCC2)OCCCC[C@H](C)Oc2ccc(NS(=O)(=O)c3ccccc3)cc2C1=O	-78*
Nc1ccc(S(=O)(=O)Nc2nccc(/C=C/c3ccc(Br)s3)n2)cc1	15
CCCc1nc(C(=O)Nc2cnc3n2CCCC3)cs1	-13
O=C(CN1CCOCC1)N1CC(=O)N2[C@H](C1)[C@H](c1ccc(C3=CCCCC3)cc1)[C@@H]2CO	5
CN(CCC1(O)CCCC1)C(=O)Cc1nc2ccccc2o1	16

The last 2 compounds of the part before come first, to join the parts.
Compound	Tgondii IFNg
O=C(CN1CCOCC1)N1CC(=O)N2[C@H](C1)[C@H](c1ccc(C3=CCCCC3)cc1)[C@@H]2CO	5
CN(CCC1(O)CCCC1)C(=O)Cc1nc2ccccc2o1	16
CCCc1nc(C(=O)N2CC[C@@H](c3sccc3C)[C@H](O)C2)cs1	-3
Cc1oc(-c2cccc(Cl)c2)nc1CN(C)Cc1cnn(C)c1	-6
Cc1nc2c(C)cccc2cc1C(=O)NCc1noc(-c2ccccc2)n1	25
O=C(CC1N=C2c3ccccc3N=C(SCc3ccc(F)cc3)N2C1=O)NCCc1ccccc1 (stereo unspecified)	-44
COc1ncc(C2(O)CCN(C(=O)c3cc4c(s3)CCC4)CC2)c(OC)n1	-46
CO[C@H]1CN(C)C(=O)c2cc(NC(=O)Cc3ccccc3)ccc2OC[C@H](C)N(C(=O)c2ccccc2F)C[C@H]1C	-66
COc1cccc(NC(=O)N[C@H]2C=C[C@H](CC(=O)NCc3ccncn3)O[C@@H]2CO)c1	-35
Cc1ccc(-c2cc(O)c3c(c2)CN(Cc2ccoc2)CCO3)s1	4
Cc1ccc(NC(=O)Cc2c(C)[nH]c3c(C)cc(C)cc23)c(-c2cc(C)[nH]n2)c1	9
CCCCC(CC)CNC(=O)CCC1Nc2c3ccccc3nc(=S)n2C1=O (stereo unspecified)	7
O=S(=O)(Cc1ccc(F)cc1)Cc1noc(-c2ccc(OC(F)(F)F)cc2)n1	0
CCOc1ccc(NC(=O)COc2nc(C)nc3ccccc23)cc1	7

An excerpt, so the mix of outcomes need not match the whole.
